# HPGD inh = qHTS Assay for Inhibitors of HPGD (15-Hydroxyprostaglandin Dehydrogenase); 15-hydroxyprostaglandin dehydrogenase [NAD(+)] (Homo sapiens), P15428; AID 894, 2007; purified HPGD, NADH fluorescence kinetic, PGE2 substrate; Potency, µM, inactives show at the top dose activity change, negative = inhibition, hits mostly inhibitors; actives 4.3% (n = 150,000); active = well fitted inhibition curve with a large enough effect (not every such curve was filed as active); inconclusive = small, poorly fitted or top-dose-only effect, or another doubt; inactive = no such curve, though single readings can be large or run the other way;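 further: top concentration of the series not given in the record; plate controls included wells without enzyme; inactives centre near -10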
# Target sequence (P15428 whole entry, looked up): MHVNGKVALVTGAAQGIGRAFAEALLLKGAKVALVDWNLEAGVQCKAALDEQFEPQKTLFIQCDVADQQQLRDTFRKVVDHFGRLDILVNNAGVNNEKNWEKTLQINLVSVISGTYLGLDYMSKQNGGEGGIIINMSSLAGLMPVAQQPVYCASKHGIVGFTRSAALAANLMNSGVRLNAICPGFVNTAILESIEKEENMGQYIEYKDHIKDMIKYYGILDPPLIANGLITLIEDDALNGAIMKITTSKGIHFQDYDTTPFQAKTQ
#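 20 nM HPGD preincubated 15 min at room temperature with compound in 50 mM Tris-HCl pH 8, 0.01% Tween 20. Started with 1 mM NAD+ and 30 uM prostaglandin E2; NADH fluorescence (360/450 nm) read 5 times over 30-s intervals, last minus first.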
# Numbers without * were called inactive; ? = inconclusive. On the % scale 0 is the no-effect control and ±100 the full control effect; potency means the concentration at half of the fitted maximal effect. An excerpt. The share of hits here may be higher or lower than overall.
HPGD inh,Molecule
?,Cc1c2cnccc2c(C)c2c1c1ccccc1n2CCOC(=O)c1ccccc1
-14%,COc1ccc(/C=C2\CN(Cc3ccccc3)C/C(=C\c3ccc(OC)cc3)C2=O)cc1
-14%,CC(=O)O[C@H]1C[C@@H]2CCC3C(CC[C@@]4(C)[C@H]3C[C@H]([N+]3(C)CCCCC3)[C@@H]4OC(C)=O)[C@@]2(C)C[C@@H]1[N+]1(C)CCCCC1 (stereo partly specified)
-4%,Cn1c(=O)c2c(nc(Cl)n2Cc2ccncc2)n(C)c1=O
-2%,Cc1ccc(OCCNC(=O)c2cc(C(=O)NCCOc3ccc(C)cc3)cc([N+](=O)[O-])c2)cc1
-12%,COc1ccc(N2CCN(C(=O)CCS(=O)(=O)c3cccc4nsnc34)CC2)cc1
-6%,Cc1cccc(OCCCC(=O)Nc2ccc(Br)cc2)c1
-4%,CN(CCCCCCCCC(=O)/C=N/O)Cc1ccccc1
-15%,Cc1ccc(C2=N/C(=C\c3c(C)nn(-c4ccccc4)c3N3CCCC3)C(=O)O2)cc1
-3%,O=C(NCCNC(=O)C(c1ccccc1)c1ccccc1)c1ccco1
-28%,N#CC1=C(N)SC(N)=C(C#N)C1c1ccc(C(F)(F)F)cc1
-3%,CC(C)Cn1c(SCC(=O)c2c(N)n(C)c(=O)n(C)c2=O)nc2ccccc21
-2%,COc1ccc(Cl)cc1S(=O)(=O)NCc1cccnc1
-18%,COc1ccc(/C=N/N=C/c2ccc(OC)c(OC)c2)cc1OC
20µM*,COc1ccccc1OCc1ccc(C(=O)N2CCN3CCCC3C2)cc1 (stereo unspecified)
0%,Cc1cccc(C)c1NC(=O)COC(=O)Cc1ccsc1
?,Cc1cccc2cc(CN(Cc3nnnn3Cc3ccco3)C3CCCC3)c3nnnn3c12
-7%,CN(Cc1ccccc1)S(=O)(=O)c1ccc2c(c1)n(C)c(=O)n2C
-25%,CN(C)CCCc1cc(C(=O)Nc2ccc(-c3ccncc3)cc2)ccc1O
-5%,CCCC(C(=O)NC1CCCCC1)N(CC1CCCO1)C(=O)CNS(=O)(=O)c1ccc(F)cc1 (stereo unspecified)
-5%,CCN(CC)C(=O)C1=C(C)NC(=O)NC1c1ccccc1F (stereo unspecified)
22µM*,Cc1cc(C)c(C#N)c(OCC(=O)c2ccccc2)n1
-4%,Cc1cnc(C(=O)OCC(=O)NCc2ccccc2)cn1
-6%,CCN(c1ccccc1)S(=O)(=O)c1ccc(N)cc1
-4%,COc1ccc(NC(=O)c2ccc(-n3nc(C)cc3C)cc2)cc1OC
?,COc1ccc(-c2cc(C(F)F)n3ncc(C(=O)NCCCN4CCCC4=O)c3n2)cc1
16µM*,CCOc1ccc2sc(NS(=O)(=O)c3ccc(OC)c(OC)c3)nc2c1
-8%,CC1OC(C)(C)OC1C1CNc2nc(NC(=O)C(C)(C)C)[nH]c(=O)c2N1C(=O)c1cccnc1 (stereo unspecified)
-19%,Cc1onc(-c2ccccc2)c1C(=O)N/N=C/c1cc2c(cc1Cl)OCO2
?,CC[C@@H]1C(c2ccc(F)cc2)=NN(c2ccc(Br)cc2)[C@H]1C(=O)N1CCOC1=O
-3%,CCCc1noc2c1/C(=N\O)CC(c1ccccc1)C2 (stereo unspecified)
-13%,COc1ccc(C(=O)NC(=S)NNC(=O)CCc2ccccc2)cc1
18µM*,OC(c1ccc(Cl)cc1)c1nnc(-c2ccccc2)o1 (stereo unspecified)
-17%,COc1cc(NC(=O)C2CCCN(S(=O)(=O)c3cccc4nsnc34)C2)cc(OC)c1 (stereo unspecified)
-2%,COc1ccc(C(=O)Nc2ccc(F)cc2F)cc1
-15%,CCOc1cc(NC(=S)NCC(C)C)c(OCC)cc1NC(=O)c1ccco1
-8%,Nc1c(CO)nnn1-c1ccccc1
3%,Cc1ccc(NC(=O)CN(C)C(=O)c2ccc(C(F)(F)F)cc2)cc1
1%,Oc1ccc(Br)cc1CN1CCCCCCC1
-2%,O=Cc1cccn1Cc1ccc(Cl)cc1Cl
-16%,CCCCOC(=O)c1ccc(NC(=O)c2cc(Cl)ccc2OC)cc1
?,Cc1ccc2cc(C#N)c(NCCCNC(=O)C3CCCO3)nc2c1 (stereo unspecified)
-8%,COc1ccc(S(=O)(=O)N2CCCN(S(=O)(=O)c3ccc(OC)c(C)c3)CC2)cc1C
-6%,Cc1ccc(S(=O)(=O)N(CC(=O)O)c2ccc(Cl)cc2)cc1
-8%,O=C(Cc1ccc(Cl)cc1Cl)Nc1ccc(OC(F)F)c(Cl)c1
?,COc1ccc(-c2c(C#N)c(N)nc3c2CCc2ccccc2-3)cc1OC
-5%,Cc1ccccc1-n1c(-c2ccc(Cl)cc2)cnc1SCC(=O)NC1CCS(=O)(=O)C1 (stereo unspecified)
-20%,CCCCCc1cc(O)c2c(C)cc(=O)oc2c1
-4%,Cc1csc(NC(=O)CSc2nnc(NC(=O)COc3ccccc3)s2)n1
-8%,O=C(NCc1cccnc1)C1CC(=O)N(CCc2ccccc2)C1 (stereo unspecified)

# Other results
HPGD inh,Molecule
-3%,CC(=O)Nc1cccc(N)c1
-27%,N#CCc1c(C#N)c(N)nc(N2CCN(Cc3ccc4c(c3)OCO4)CC2)c1C#N
-12%,COC(=O)/C(=N\Nc1ccccc1)Sc1nnc(-c2ccc(OC)cc2)n1C
1%,C1CCc2c(nnc3c2-c2nonc2CC3)C1
?,CCc1nc(NCC2CCCO2)c(C#N)c2c1COC(C)(C)C2 (stereo unspecified)
-4%,CCCn1c2c(c(O)c(C(=O)Nc3nc(C)cs3)c1=O)CCCC2
2%,CS(=O)(=O)N1CCC2(CC1)CN(C(=O)Nc1cccc(F)c1)C2
-1%,Cc1ccnc(NS(=O)(=O)c2ccc(NC(=O)C3CCCO3)cc2)n1 (stereo unspecified)
-13%,COc1ccc(C)cc1NC(=O)C(OC(=O)CNC(=O)c1ccc(Oc2ccccc2)cc1)c1ccccc1 (stereo unspecified)
-1%,CCCC(C)C(=O)Nc1nnc(C)s1 (stereo unspecified)
?,O=C(Nc1ccccc1C(=O)NCc1ccccc1)c1ccccc1
4%,CCN(CC)CCNC(=O)C1CCN(S(=O)(=O)N2CCCCC2)CC1
-18%,COc1ccc(-c2csc(NCc3ccco3)n2)cc1
-14%,CCCCC(=O)N(CCOC)c1nnc(-c2ccc(OC)cc2)s1
14µM*,Cc1cccc(-c2noc(-c3ccc(Cl)cc3[N+](=O)[O-])n2)c1
-12%,CCCCCN(C(=O)NC(=O)Nc1nncs1)S(C)(=O)=O
-16%,CCN(CC)CCNC(=O)c1ccc2c(=O)n(C3CCCC3)c(=S)[nH]c2c1
-17%,CCCOc1nc(N)c(C#N)c(-c2ccccc2F)c1C#N
-8%,Cc1[nH]c2ccccc2c1CCO
-14%,Cc1c(NC(=S)N/N=C/C=C/c2ccc([N+](=O)[O-])cc2)c(=O)n(-c2ccccc2)n1C
-4%,COc1ccc(-c2nnnn2C)cc1S(=O)(=O)NCCc1ccccc1
-6%,CCOc1ccc(NC(=O)N(CCN(C)C)C(C)c2ccncc2)cc1 (stereo unspecified)
-3%,CS(=O)(=O)c1ccc2nc(NC(NC(=O)c3ccco3)(C(F)(F)F)C(F)(F)F)sc2c1
-4%,COc1ccccc1OCCC(=O)OCC(=O)NC(=O)NC(C)(C)C
-4%,O=C(Nc1cccc(S(=O)(=O)N2CCCCC2)c1)c1ccc2ccccc2n1
-17%,CC1CCCCC1NC(=O)Cn1[nH]c(=O)c2ccccc2c1=O (stereo unspecified)
-13%,COCCOC(=O)C1=C(C)NC(=O)NC1c1cccs1 (stereo unspecified)
-16%,Cc1cc(C)nc(N/C(=N\S(=O)(=O)Cc2ccccc2)Nc2cccc(Cl)c2C)n1
-6%,O=C(CCn1ccc([N+](=O)[O-])n1)NC1CCCCCC1
-3%,C/C(CC(=O)Nc1ccccc1-c1ccccc1)=N\NC(=O)COc1ccc(C)cc1Br
-12%,CCCSc1nnc(CSc2nc3nc(C)cc(C)n3n2)o1
-3%,COC(=O)CC1C2(C)CC34OC5(C)O[C@@]6(C7/C(=C(/O)C(C)C)C(=O)OC(c8ccoc8)[C@]7(C)C(OC(C)=O)C(OC(C)=O)[C@]6(O5)[C@@]13C)C(OC(C)=O)[C@]4(O)C2OC(=O)C(C)C (stereo partly specified)
-10%,CS(=O)(=O)Nc1ccc(C(=O)NCc2ccccn2)cc1
-1%,Cc1cccc(-c2nnc(SCC(=O)Nc3cccc(C(=O)N4CCOCC4)c3)n2C)c1
-6%,O=C(COC(=O)C1Cc2ccccc2CN1C(=O)c1ccccc1Cl)Nc1ccc(N2CCOCC2)cc1 (stereo unspecified)
-18%,COc1ccc(NC(=S)Nc2cc(S(=O)(=O)N3CCCCC3)ccc2OC)cc1
25µM*,O=C(CSC1=NCCS1)NC1CCCC1
0%,Cc1ccc(N2C(=O)c3ccccc3C2(O)c2ncc[nH]2)cc1 (stereo unspecified)
-8%,Cc1cccc(C2(c3cccc(C)c3)CC2C(=O)NCC2CCCO2)c1 (stereo unspecified)
-2%,O=C(CCC(=O)OCC(F)(F)C(F)F)Nc1ccc(Cl)cc1
-8%,O=C(CC1Nc2ccccc2NC1=O)Nc1cc(Cl)cc(Cl)c1 (stereo unspecified)
-11%,N[C@@H](CNO)C(=O)O
-2%,CC(=O)OC1CSc2nc3ccccc3n2C1 (stereo unspecified)
1.1µM*,CC(=O)c1cccc(NC(=O)Nc2ccc(C(=O)N3CCCC3)cc2)c1
?,COc1ccc(C2OC(=O)c3ccccc3S2)cc1 (stereo unspecified)
1%,COC(=O)C(Nc1nccs1)(OC)C(F)(F)F (stereo unspecified)
-16%,Cc1ccc(C(=O)CSc2nnc(CNc3ccc(C)cc3C)n2Cc2ccco2)cc1
-6%,COc1ccc(C2N(c3cc(Cl)ccc3OC)C(=O)C3CCCN32)cc1OC (stereo unspecified)
-10%,CC(=O)c1c(C)[nH]c(C(=O)NCCCN2CCCC2)c1C
-10%,O=C(NNC(=O)C1CCCN(c2ncccn2)C1)c1ccc(F)cc1 (stereo unspecified)

# Molecules shown so far containing a cyano group (7):
HPGD inh,Molecule
-28%,N#CC1=C(N)SC(N)=C(C#N)C1c1ccc(C(F)(F)F)cc1
22µM*,Cc1cc(C)c(C#N)c(OCC(=O)c2ccccc2)n1
?,Cc1ccc2cc(C#N)c(NCCCNC(=O)C3CCCO3)nc2c1 (stereo unspecified)
?,COc1ccc(-c2c(C#N)c(N)nc3c2CCc2ccccc2-3)cc1OC
-27%,N#CCc1c(C#N)c(N)nc(N2CCN(Cc3ccc4c(c3)OCO4)CC2)c1C#N
?,CCc1nc(NCC2CCCO2)c(C#N)c2c1COC(C)(C)C2 (stereo unspecified)
-17%,CCCOc1nc(N)c(C#N)c(-c2ccccc2F)c1C#N

# Three neighbouring records out of the list so far, for reference:
HPGD inh,Molecule
-6%,COc1ccc(C2N(c3cc(Cl)ccc3OC)C(=O)C3CCCN32)cc1OC (stereo unspecified)
-10%,CC(=O)c1c(C)[nH]c(C(=O)NCCCN2CCCC2)c1C
-10%,O=C(NNC(=O)C1CCCN(c2ncccn2)C1)c1ccc(F)cc1 (stereo unspecified)

# Next section.
HPGD inh,Molecule
-13%,CC(=O)N(O)[C@@H]1c2cc(C#N)ccc2OC(C)(C)[C@H]1O
-6%,Cc1ccc(O)c(NC(=O)CCCC(=O)O)c1
-5%,Cc1cc(C)cc(NC(=O)CSc2nc3c(c(=O)n2C)SC(C)C3)c1 (stereo unspecified)
-9%,Cc1ccc(-c2nnc(SCC(=O)N/N=C/c3c(C)nn(-c4ccccc4)c3C)n2-c2ccc(C)cc2)cc1
-17%,Cc1nn(C)cc1/C=N\NC(=O)Cc1ccc([N+](=O)[O-])cc1
-6%,Cc1ccccc1-c1nc2ccccc2c(=O)n1C1CCS(=O)(=O)C1 (stereo unspecified)
-16%,CCC(C)NC(=O)c1ccc(CSCc2cccc(F)c2)o1 (stereo unspecified)
-8%,COc1ccc(CN2C(=O)c3ccccc3C2C(=O)NCC2CCCO2)c(OC)c1 (stereo unspecified)
?,CCOC(=O)C1CCN(c2nc(-c3ccccc3)nc3c2oc2ccccc23)CC1
-19%,S=C(Nc1ccc(Oc2ccc(NC(=S)NC3CCCCC3)cc2)cc1)NC1CCCCC1
-19%,CCOc1ccc2nc(C)cc(Nc3ccc4c(c3)OCCO4)c2c1
-7%,Cc1ccc(S(=O)(=O)Nc2cccnc2)cc1
-14%,CCOC(=O)c1ccc2c(c1)N(Cc1ccccc1C)C(=O)c1ccccc1S2=O (stereo unspecified)
-7%,CC(C)(C)n1nnnc1C(c1ccccc1F)N1CCN(C2CCCC2)CC1 (stereo unspecified)
-18%,Cc1ccc(C2/C(=C(/O)c3cnn(-c4ccccc4)c3C)C(=O)C(=O)N2CCN2CCOCC2)o1 (stereo unspecified)
?,C=CCOc1ccc2c(CC)cc(=O)oc2c1C
-12%,Cc1cc(C)cc(OCc2nnc(SCC(=O)c3ccc(Br)cc3)o2)c1
-22%,CCOc1ccc(-c2nc(CSc3nncs3)cs2)cc1OC
-6%,CCc1ccccc1OCC(=O)Nc1ccc(S(N)(=O)=O)cc1
-6%,CC(NC(=S)Nc1ccccc1Cl)C(c1ccccc1)N1CCOCC1 (stereo unspecified)
-14%,CC(C)C(=O)Nc1ccc(N2CCCC2)cc1
?,COc1cc(OC)cc(-c2nnc(SCC(=O)N3CCCc4ccccc43)o2)c1
?,CCCc1ccc(-c2cc(C(=O)NCCc3ccc(S(N)(=O)=O)cc3)c3ccccc3n2)cc1
-7%,COc1cc(S(=O)(=O)n2nc(C)cc2C)c(OC)cc1Cl

# Compound activity from PubChem BioAssay.
